From PubChem BioAssay
Mtb growth – M. tuberculosis H37Rv growth inhibitors, H37Rv strain (AID 1626); M. tuberculosis H37Rv growth inhibition; higher % means a stronger effect; one-dose inhibition, % at 10 µM; IC50 in µM for titrated hits; hit rate 0.95% among 220,000;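 active = confirmed in a dose series; inconclusive = inhibition above 80% but not taken into the dose series; inactive = below 80% or under 30% at every dose of the series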;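 also: bacteria incubated seven days before Alamar blue readout; 0% = bacteria only wells and 100% = bacteria with antibiotic wells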
Mtb betalactam – beta-lactam sensitization of Mtb H37Rv, H37Rv; M. tuberculosis H37Rv growth with meropenem, percent inhibition; hits of this screen are not shown here; AID 434955, 2010; hit rate 0.27% among 330,000; inhibition, % at 25 µM;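 active = about 74% or more and at least 40 points above the plate without the antibiotic, then above 30% in a dose series; inconclusive = first-round hits that could not be retested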;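 also: growth measured after seven days incubation then overnight dye step; 0% = bacteria only wells and 100% = bacteria with antibiotic; twin plates without the antibiotic show which effects depend on it; some results filed as inactive read as strong as hits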
RecA intein inh – Mtb RecA intein splicing inhibitors, primary screen, biochemical, fluorescence, HTS. AID 2221, 2009. hit rate 0.75% among 290,000. inhibition, %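 (about 9 µM by stock and volumes)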. Protein RecA (Mycobacterium tuberculosis (strain ATCC 25618 / H37Rv)), P9WHJ3. cell-free RecA intein splicing; in the data active = inhibition above about 30%; inconclusive = no clear call, values can overlap the other calls;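 also: 0% = vehicle wells and 100% = reference inhibitor control wells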
Target sequence (P9WHJ3 whole entry, looked up): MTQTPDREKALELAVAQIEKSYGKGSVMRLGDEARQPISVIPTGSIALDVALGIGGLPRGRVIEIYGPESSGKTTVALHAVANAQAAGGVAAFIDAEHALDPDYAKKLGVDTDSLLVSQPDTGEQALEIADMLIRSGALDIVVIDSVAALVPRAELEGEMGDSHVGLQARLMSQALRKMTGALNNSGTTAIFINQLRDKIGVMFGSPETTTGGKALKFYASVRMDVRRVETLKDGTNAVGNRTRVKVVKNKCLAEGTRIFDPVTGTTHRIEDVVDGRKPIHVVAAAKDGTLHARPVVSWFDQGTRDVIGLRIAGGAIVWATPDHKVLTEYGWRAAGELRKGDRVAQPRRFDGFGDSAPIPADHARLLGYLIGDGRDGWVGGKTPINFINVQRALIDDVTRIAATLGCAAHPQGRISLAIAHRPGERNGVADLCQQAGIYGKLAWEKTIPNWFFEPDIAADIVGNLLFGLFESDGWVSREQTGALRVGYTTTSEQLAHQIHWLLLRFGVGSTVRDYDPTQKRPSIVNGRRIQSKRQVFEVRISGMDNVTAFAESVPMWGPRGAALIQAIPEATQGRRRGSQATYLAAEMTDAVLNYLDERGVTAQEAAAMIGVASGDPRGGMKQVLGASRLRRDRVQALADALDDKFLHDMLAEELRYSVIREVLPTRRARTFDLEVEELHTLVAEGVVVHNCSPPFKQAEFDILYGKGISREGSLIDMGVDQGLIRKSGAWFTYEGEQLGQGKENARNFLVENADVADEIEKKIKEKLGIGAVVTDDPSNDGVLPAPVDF
YopH inh – YopH tyrosine phosphatase inhibitors, primary screen, biochemical, fluorescence Ex485/Em525; inhibition, %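 (about 10 µM by stock and volumes)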; hit rate 0.16% among 140,000;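 active = inhibition of 50% or more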;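 also: controls were vehicle for no effect and minimum signal wells for full effect; inactives centre near -20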
Arbovirus anti – antivirals against arbovirus infection, primary screen, cell-based, full library, 10K replicate subset | inhibition, % at 10 µM | AID 1251, 2008 | hit rate 0.37% among 200,000 | arbovirus infection cell-based antiviral screen;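 active = inhibition from about 30%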;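 also: bluetongue infection of BSR cells; cell survival read as ATP light after 72 h; 0% = infected wells without compound and 100% = uninfected wells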
Arbovirus anti repeat – also measured in Arbovirus anti; calls as there; inhibition, %; measured here: 10K subset replicate screen; many hits read low in the repeat;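 first of two repeat runs on a subset; 0% = infected and 100% = uninfected wells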
Active calls of the source: *; ? = inconclusive; . = not tested or not shown. Only part of the results is shown; count on the stated rates, not on these rows.

SMILES	Mtb growth	Mtb betalactam	RecA intein inh	YopH inh	Arbovirus anti	others
CC(C)CN(CCCNC(=O)CN1C(=O)CSc2ccc(S(=O)(=O)N3CCOCC3)cc21)CC(C)C	-3%	5	11	.	0
COc1ccccc1NC(=O)c1cc(Cl)ccc1NC(=O)c1ccco1	-3%	0	-1.8	-35	2
CCOC(=O)C(=CNc1cc(C)ccc1[N+](=O)[O-])C(=O)OCC	-5%	3	0.9	.	.
CCC(C)(C)NC(=O)C1CCCN1C(=O)NC1CCCCC1 (stereo not drawn)	1%	6	-1.5	.	3
CCn1nnnc1SCC(=O)Nc1cccc(C)n1	6%	0	-1.0	-37	6
Cc1cc(C)cc(-n2nnnc2SCC(=O)N2CCOCC2)c1	1%	-1	-2.2	-23	5
COc1cc(/C=N/NS(=O)(=O)c2ccc(C)cc2)ccc1OCc1cccc(C(=O)O)c1	2%	-8	-1.2	.	1
COc1ccc(/C=N\NC(=O)COc2ccc(Cl)cc2Cl)c(C(=O)O)c1OC	1%	-4	-2.3	1	-5
COc1cc(C(=O)NCCNc2nc3c(C)c(C)ccc3cc2C#N)cc(OC)c1OC	.	2	-22	.	.
Cn1c(=O)c2c(nc(N3CCCCCC3)n2Cc2cccc3ccccc23)n(C)c1=O	.	-11	1.2	-26	-23
Cc1ccc(-c2cc(C(=O)N/N=C/c3cccnc3)c3ccccc3n2)cc1C	.	33	9.2	.	.
O=C(O)CSCC(=O)NCc1c(Cl)cccc1Oc1ccccc1	0%	-2	1.2	.	.
COc1ccccc1N1CCN(C(=O)c2ccc(S(=O)(=O)N3CCCC3)cc2)CC1	9%	-14	-0.6	-99	-4
COc1ccccc1-c1cc(C(F)(F)F)nc(S(=O)(=O)CCCC(=O)Nc2cc(C)on2)n1	4%	34	25	-28	-11
[O-]/[N+](=C\c1ccncc1)c1ccccc1	.	-12	-8.1	59*	9
COc1ccc(N2CCN(S(=O)(=O)c3ccc4c(c3)NC(=O)CC(=O)N4)CC2)cc1	.	-3	1.1	.	.
COc1ccc(S(=O)(=O)N2CCN(S(=O)(=O)c3ccc4c(c3)OCCO4)CC2)cc1	1%	-22	2.2	-7	-6
O=C1CN=C(c2ccc(Br)cc2)c2oc3ccccc3c2N1	0%	0	-0.4	-29	-12
Cn1cccc1P(=O)(c1cccn1C)c1cccn1C	10%	0	0.0	-14	3
O=C(NNC(=O)c1cc2cc(Br)ccc2oc1=O)c1ccc(O)cc1O	0%	5	25	.	-31
COc1ccc(Cn2c(SC)nc3ccccc32)cc1[N+](=O)[O-]	-2%	-3	0.2	-24	3
Cc1cc(C)n(-c2nc(NC(C)(C)C)nc(NC(C)(C)C)n2)n1	<0.2µM*	72	2.5	-41	-6	Arbovirus anti repeat=-10
CCCCNC(=O)Nc1ccc(Br)cn1	8%	-3	1.6	-17	-8	Arbovirus anti repeat=-2
COCCN1C(=O)N(c2ccccc2)C(=O)C1CC(=O)Nc1cc(OC)cc(OC)c1 (stereo not drawn)	.	-7	0.3	.	.
Cc1ccc(C)c(NC(=S)N=Nc2c(O)n(C)c3ccc(S(=O)(=O)N4CCOCC4)cc23)c1	-3%	4	4.6	-18	-12
Cc1nn(Cc2ccccc2)c(C)c1C(=O)NCc1ccccc1	4%	-14	.	.	-1
C=CCn1c(CCc2ccc(OC(C)C)cc2)n[nH]c1=S	-1%	-6	1.6	.	-6
Nc1c(C(=O)NCc2ccc3c(c2)OCO3)nnn1CC(=O)Nc1ccc(Br)cc1	.	0	-0.1	.	.
Cc1ccc2c(CN3CCCCC3CCO)cc(=O)oc2c1 (stereo not drawn)	.	0	2.0	.	.
CCC(=O)c1ccc(OCC(=O)OCC(=O)NCC2CCCCC2)cc1	.	7	0.1	.	.
COc1ccc(CC(=O)NCC(=O)N=Nc2c(O)[nH]c3ccccc23)cc1	.	1	0.9	.	.
COCCNC(=O)C(c1ccc(F)cc1)N(C(=O)CCC(=O)Nc1ccccn1)C1CCCCC1 (stereo not drawn)	.	-2	1.4	.	.
O=C(CC1C(=O)OCN1C(=O)OCc1ccccc1)OCC(=O)c1ccccc1 (stereo not drawn)	-3%	19	1.5	-43	4
Cc1ccc(NC(=O)Cn2cnc3sc(C(=O)NCc4ccco4)c(C)c3c2=O)cc1Cl	5%	47	0.5	-13	-14
COCc1c(C(=O)N2CCN(c3ccc(C(F)(F)F)cn3)CC2)oc2ccccc12	4%	-1	6.7	-11	-9
COc1ccccc1CNC(=O)CC12CC3CC(CC(Br)(C3)C1)C2	.	-2	-5.0	.	.
C=C(C)C(=O)Nc1cccc(C2=NOC3(C2)C[C@@H](C(N)=O)N(C(=O)c2cc([N+](=O)[O-])cc([N+](=O)[O-])c2)C3)c1 (stereo partly drawn)	-3%	99	-6.0	.	.
N=c1ccn(CC(=O)NC(N)=O)c2ccccc12	11%	-7	-0.4	-27	-2
Cc1cccc(Cn2cccc2/C=C2/C(=N)N3C=CSC3=NC2=O)c1	12%	5	-3.6	-6	-11
CCOC(=O)N1CCN(C(=O)CS(=O)(=O)c2cn(Cc3ccc(F)cc3)c3ccccc23)CC1	4%	-4	0.7	.	.
COc1cccc(N2CC(O)=C(c3ccccc3)C2=N)c1	.	-4	.	5	-3
O=C1Cc2cc(NS(=O)(=O)c3cc(F)ccc3F)cc3c2N1CCC3	.	-11	14	.	.
Cc1cccc(CCNC(=O)CCNC(=O)Cn2ccc3ccccc3c2=O)c1	7%	7	-1.5	-5	2
COc1cc(/C=N/NC(=O)CN2CC(c3ccccc3)CC2=O)ccc1OC(=O)N(C)C (stereo not drawn)	1%	6	2.2	-11	9
CCNC(=S)N1CCC(NC(=O)c2ccco2)CC1	-2%	-10	-1.3	.	-1
CC1=C(C(=O)OCCOC(C)C)C(c2cc3c(cc2Br)OCO3)CC(=O)N1 (stereo not drawn)	0%	-2	.	4	-5
COC(=O)c1[nH]c2ccc(Cl)cc2c1NC(=O)C1CC1	.	-11	0.2	-21	3
CSc1nncc(/C(C)=N/O)n1	3%	0	5.4	-8	10
O=C(Nc1ccc(S(=O)(=O)Nc2nccs2)cc1)c1ccc(S(=O)(=O)N2CCOCC2)cc1	1%	3	1.4	-22	2
Cn1c(SCc2nnc(-c3ccccc3Br)o2)nc2sc3c(c2c1=O)CCC3	7%	67	9.3	-16	5
CCOC(=O)C1CCN(C(=O)COc2ccc3c(c2)OCO3)CC1	.	1	-3.3	.	.
CCN1CCN(Cc2ccc(NC(=O)c3cc(NC(=O)c4cc5cccc(OC)c5o4)cc(OC)c3)cc2C(F)(F)F)CC1	?	100	13	.	.
COc1ccc2nc(C)cc(Nc3ccc(C)cc3)c2c1	.	2	1.4	.	.
O=c1cc(-c2ccccc2)[nH]n1-c1ccc([N+](=O)[O-])cc1	-11%	-4	46*	-22	-33
COc1ccc(CN=Cc2c(C(=O)O)[nH]c3ccccc23)cc1	-5%	-1	-9.5	.	3
CCC1CCCCN1CCCNC(=O)c1ccc2nc(N3CCCCC3)sc2c1 (stereo not drawn)	.	6	0.7	.	.
CCOc1ccc(S(=O)(=O)NCCC(=O)N2CC(C)OC(C)C2)cc1 (stereo not drawn)	.	-7	-0.8	.	.
CCC(C)(C)NC(=O)c1ccc(S(=O)(=O)N(C)c2ccccc2OC)cc1	0%	4	1.6	14	3
CC(C)c1nc2oc3c(=O)[nH]cnc3c2c2c1CCC2	-6%	-1	3.6	-11	4
CCOC(=O)c1cnc2ccc(C)cc2c1NCCO	-2%	-1	-2.9	-20	-2

Compounds from the list above containing a thiophene ring, fused or not:
SMILES	Mtb growth	Mtb betalactam	RecA intein inh	YopH inh	Arbovirus anti	others
Cc1ccc(NC(=O)Cn2cnc3sc(C(=O)NCc4ccco4)c(C)c3c2=O)cc1Cl	5%	47	0.5	-13	-14
Cn1c(SCc2nnc(-c3ccccc3Br)o2)nc2sc3c(c2c1=O)CCC3	7%	67	9.3	-16	5

Additional results follow:
SMILES	Mtb growth	Mtb betalactam	RecA intein inh	YopH inh	Arbovirus anti	others
NCC1CCC(C(=O)Oc2ccc(CCC(=O)O)cc2)CC1 (stereo not drawn)	-5%	0	-0.2	.	.
Cc1ccc([N+](=O)[O-])c(OCC(=O)OCC(=O)c2ccccc2)c1	-1%	-4	-1.0	-29	0
CN(C)S(=O)(=O)c1cccc(C(=O)N2CCC(C(=O)O)(c3ccccc3)CC2)c1	.	-2	1.3	.	.
O=C(c1cc(-c2ccncc2)nc2ccc(Cl)cc12)N1CCN(Cc2ccc3c(c2)OCO3)CC1	1%	92	0.8	.	-23
COc1ccc(Cl)cc1NC(=O)CCN1CCN(C)CC1	8%	1	-0.2	-6	13
Nc1nc(-c2ccccc2)nn1C(=O)c1ccco1	4%	-8	2.6	.	1
FC(F)(F)c1cccc(-c2ccc(/C=N/Nc3nncc(-c4ccccc4)n3)o2)c1	-1%	0	-1.1	.	-12
COc1ccc(NC(=O)CCCNC(=O)Cn2cnc3sc4c(c3c2=O)CCCC4)cc1OC	.	1	1.8	.	.
Cc1cccc(C(=O)NNC(=O)c2cccc(C)c2)c1	3%	-8	-1.2	-18	10
Cc1cc(C)cc(NS(=O)(=O)Cc2ccccc2)c1	.	-3	0.7	.	.
CCC(=O)N1N=C(c2ccc(NS(=O)(=O)CC)cc2)CC1c1ccc(C)cc1 (stereo not drawn)	9%	7	2.5	.	-11
CC1(C(=O)NCCCNc2ncc(C(F)(F)F)cc2Cl)C=CC2(CCCCC2)N1C(=O)c1ccccc1 (stereo not drawn)	-13%	.	3.2	.	.

Quoted at random: five compounds from above
SMILES	Mtb growth	Mtb betalactam	RecA intein inh	YopH inh	Arbovirus anti	others
CCCCNC(=O)Nc1ccc(Br)cn1	8%	-3	1.6	-17	-8	Arbovirus anti repeat=-2
Nc1nc(-c2ccccc2)nn1C(=O)c1ccco1	4%	-8	2.6	.	1
COc1ccc(CC(=O)NCC(=O)N=Nc2c(O)[nH]c3ccccc23)cc1	.	1	0.9	.	.
CCC(C)(C)NC(=O)c1ccc(S(=O)(=O)N(C)c2ccccc2OC)cc1	0%	4	1.6	14	3
CCOC(=O)C1CCN(C(=O)COc2ccc3c(c2)OCO3)CC1	.	1	-3.3	.	.

The list continues:
SMILES	Mtb growth	Mtb betalactam	RecA intein inh	YopH inh	Arbovirus anti	others
Cc1ccc(N(CC(=O)NC2CCCC2)C(=O)CNC(=O)c2cccs2)cc1F	.	-7	-3.2	.	.
O=C(CN(c1ccccc1)S(=O)(=O)c1ccccc1)NCCSc1ccccn1	-5%	-9	-0.1	.	-6
CCC(=O)N1CC23C=CC(CC2CC12CCCCC2)O3 (stereo not drawn)	-7%	-3	-1.7	-19	0
O=C(O)CCc1ccc(-c2cccs2)n1NC(=O)c1ccc(O)cc1	-8%	-3	-3.5	-37	8
Cc1c2c(nc3ccccc13)OCC2	-16%	.	.	-21	5
O=C(Cc1cc(=O)[nH][nH]1)N/N=C/c1ccccc1Cl	1%	2	74*	-25	-5
CCOc1ccc(N2CC(C(=O)NC3CCSC3=O)CC2=O)cc1 (stereo not drawn)	.	-1	-0.9	.	.
N#CC(c1cccc(Cl)c1)c1ncc(C(F)(F)F)cc1Cl (stereo not drawn)	-2%	-4	-0.6	-46	-7
CC(C)CNC(=O)C(=O)Nc1ccc(N(C)C)cc1	-2%	-1	-8.0	-18	-5
CN(Cc1cccs1)C(=O)COc1ccc(-c2nnco2)cc1	-4%	-5	-2.7	-23	1
O=C(CNS(=O)(=O)c1ccc2ccccc2c1)NCCc1ccccn1	9%	7	1.8	.	0
c1ccc(CNc2ncnc3nc[nH]c23)cc1	0%	-2	1.9	-15	-1
Cn1cnnc1SCC(=O)c1ccc2c(c1)CCCC2	-10%	1	7.9	-2	0	Arbovirus anti repeat=1
CC1(C(=O)CSc2nc3ccccc3[nH]2)CCC(=O)O1 (stereo not drawn)	1%	0	1.2	-22	1
O=C(N/N=C(\c1ccccc1)c1cccnc1)c1ccc(O)cc1	.	2	0.8	.	.
C/C=C1/CC(C)C(C)(O)C(=O)OCC2CCN3CCC(OC1=O)C23 (stereo not drawn)	-3%	-4	-2.1	.	1
COc1ccc(CNc2nc(=S)[nH]c3cc(OC)c(OC)cc23)cc1	.	-5	1.5	.	.
COc1ccccc1N1CCN(C(=O)Cn2nc3n(C)c4ccccc4n3c(=O)c2=O)CC1	0%	-8	-4.2	.	5
CNCC(=O)Nc1c(C)n[nH]c1C	1%	-2	-0.6	-17	-8
CCCN1C(=O)CC(Sc2ncccc2C(=O)O)C1=O (stereo not drawn)	0%	-9	0.3	.	.
CCOc1ccc(-c2nnc3ccc(SC(C)C)nn23)cc1	.	-1	-3.0	.	-6
COc1ccccc1CNC(=O)c1ccc(-c2ccccc2)cc1	0%	3	0.4	-20	-4
Cc1nnc(SCc2nc3sc(C(=O)O)c(C)c3c(=O)[nH]2)s1	-4%	-3	0.0	.	.
